MLL AF4-AF9 inh – inhibitors of AF4 peptide binding to AF9, primary screen, biochemical, AlphaScreen, biotin-AF4 peptide, FLAG-AF9, single point | 350,000 compounds, 0.47% hits | inhibition, % at 10 µM;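 active means every replicate reaching a set inhibition limit, whatever the replicate mean, cut at about 25% in these data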;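 further: 0% = plate neutral control median and 100% = total signal loss; the record names both 10 and 1 µM as test concentration; the first replicate is given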
Target sequence (P42568 whole entry, looked up): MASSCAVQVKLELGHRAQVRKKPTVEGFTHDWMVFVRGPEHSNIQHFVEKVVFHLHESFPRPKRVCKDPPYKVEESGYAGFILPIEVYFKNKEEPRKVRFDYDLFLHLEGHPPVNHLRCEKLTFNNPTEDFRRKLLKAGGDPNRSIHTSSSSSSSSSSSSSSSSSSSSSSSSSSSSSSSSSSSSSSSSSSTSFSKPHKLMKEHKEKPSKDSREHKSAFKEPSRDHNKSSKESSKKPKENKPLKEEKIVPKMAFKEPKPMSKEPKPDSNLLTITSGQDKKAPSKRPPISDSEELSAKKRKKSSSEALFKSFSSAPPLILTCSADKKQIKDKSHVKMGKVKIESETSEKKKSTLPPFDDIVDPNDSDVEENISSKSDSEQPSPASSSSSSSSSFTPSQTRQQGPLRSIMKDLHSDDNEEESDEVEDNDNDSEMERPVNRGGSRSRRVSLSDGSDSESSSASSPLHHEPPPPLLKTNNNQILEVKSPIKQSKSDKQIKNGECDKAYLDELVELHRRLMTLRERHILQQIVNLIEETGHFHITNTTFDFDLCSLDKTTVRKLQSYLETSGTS
rRNA inh HTS – reduced GFP signal of wild-type E. coli, primary screen, bacterial rRNA inhibitor project, GFP/RFP fluorescence, OD600, single point; E. coli WT GFP vs humanized-ribosome RFP mutants, 24 h; active compounds read low; DMSO median 0, no signal -100; GFP signal change (wild-type ribosome), % (no concentration beside the values); 350,000 compounds, 1.6% hits; AID 720706, 2013;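 active means significant combined selectivity score with lowered wild-type GFP, culture density cut under 30%, mutant RFP and density less affected; inactive means any of these conditions unmet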; further: one replicate is shown; some compounds called inactive have numbers as strong as hits
FGF22 binding – binders of human FGF22 protein, primary screen, FGF22 synaptogenesis inhibitor project, biophysical, thermal shift, single point | Fibroblast growth factor 22 (Homo sapiens), Q9HCT0 | recombinant FGF22 thermal shift, SYPRO orange fluorescence; percent of sucrose octasulfate shift, DMSO zero | calls only at 9.99 µM | 340,000 compounds, 1.5% hits | AID 651658, 2012;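 active means melting point raised past a set limit in the mean and every replicate; three in four hits are not shown here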
Target sequence (Q9HCT0 whole entry, looked up): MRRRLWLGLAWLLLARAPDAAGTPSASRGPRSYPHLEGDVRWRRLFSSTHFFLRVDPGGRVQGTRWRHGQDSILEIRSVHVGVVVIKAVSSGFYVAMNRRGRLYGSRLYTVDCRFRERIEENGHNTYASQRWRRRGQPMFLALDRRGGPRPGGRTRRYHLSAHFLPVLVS
rRNA inh HTS OD600 – further read-out of rRNA inh HTS, marked with its call; OD600 change, %; measured here: OD600 growth;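 optical density of the mix in the first replicate; 0 = DMSO median and -100 = no signal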
rRNA inh HTS RFP – second read-out of rRNA inh HTS, no call of its own (marks repeat the call); RFP signal change, %; measured here: RFP humanized mutant strains;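 first replicate; 0 = DMSO median and -100 = no signal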
Active calls of the source: *; i = inactive; & = joins results of further samples. Only part of the results is shown; rates above refer to the full screens.

SMILES	MLL AF4-AF9 inh	rRNA inh HTS	rRNA inh HTS OD600	rRNA inh HTS RFP	FGF22 binding
CCCCNC(=O)C1(C)CCN1C(=O)c1ccncc1 (centres undefined)	0.2	11	9	0.9	i
C[C@@H]1CN([C@@H](C)CO)C(=O)c2cc(NC(=O)C3CCCCC3)ccc2O[C@@H](C)CCCCO[C@@H]1CN(C)C(=O)c1ccncc1	-3.3	3	6	-0.8	i
O=C(Nc1ccc2c(c1)[C@H]1C[C@@H](CC(=O)N3CCc4ccccc4C3)O[C@@H](CO)[C@H]1O2)c1ccc2c(c1)OCO2	4.1	-7	-22	-0.6	i
Cc1[nH]nc(-c2cccnc2)c1N=NN(C)C	1.5	-49	-76	-16	i
CCCNC(=O)N[C@H]1CC[C@@H](CC(=O)NC2CCCCC2)O[C@H]1CO	-1.0	1	-4	-1.4	i
O=S(=O)(N[C@H]1CC[C@H](CCn2cc(Cc3ccccc3)nn2)O[C@H]1CO)c1ccccc1F	5.4	0	-2	2.1	i
CC(=O)N[C@@H]1CC[C@@H](CCNC(=O)C2CC2)O[C@H]1CO	-2.3	1	0	1.3	i
Cc1noc(C)c1S(=O)(=O)Nc1ccc2c(c1)C(=O)N([C@@H](C)CO)C[C@H](C)[C@H](CN(C)C(=O)Cc1ccccc1)OCCCC[C@@H](C)O2	1.8	-4	-9	4.4	i
COc1ccc(NC(=O)Nc2ccc3c(c2)C(=O)N([C@H](C)CO)C[C@@H](C)[C@H](CN(C)Cc2ccc(C(=O)O)cc2)OCCCC[C@H](C)O3)cc1	0.9	0	1	-1.2	i
C[C@H](CO)N1C[C@H](C)[C@@H](CN(C)Cc2ccc(Oc3ccccc3)cc2)Oc2ccc(NC(=O)Nc3ccccc3)cc2C1=O	1.1	0	-13	12	i
CCCCc1c(-c2ccc(OC)c(OC)c2)ncn1CCc1ccccc1OC	11	-63	-75	-19	i
CC(C)NC(=O)Nc1ccc2c(c1)CC(=O)N([C@@H](C)CO)C[C@@H](C)[C@H](CN(C)S(=O)(=O)c1cn(C)cn1)O2	-2.4	2	5	0.2	i
COc1ccc(NC(=O)Nc2ccc3c(c2)CC(=O)N([C@H](C)CO)C[C@@H](C)[C@H](CN(C)Cc2ccc(C(=O)Nc4ccccc4N)cc2)O3)cc1	-2.6	5	1	2.5	i
CCC(=O)Nc1ccc2c(c1)C(=O)N(C)C[C@H](OC)[C@H](C)CN(C(=O)CC1CC1)[C@@H](C)CO2	-1.3	0	-5	0.0	i
CN1CCN(C(=O)C[C@H]2CC[C@@H]3[C@H](COC[C@@H](O)CN3CC3CC3)O2)CC1	-2.0	-1	2	-4.5	i
S=C(SCc1c(Cl)cccc1Cl)N1CCSCC1	9.6	4	8	3.8	i
O=C(c1[nH]c(C(F)(F)F)nc1-c1ccccc1)N1CCC2(CC1)C(=O)NCN2c1ccccc1	-7.0	-11	-1	3.1	i
O=C(Nc1cc(F)ccc1F)N1C[C@@H]2[C@H](c3ccccc31)[C@H](CO)N2Cc1cccnc1	-5.9	-2	2	-0.4	i
C[C@H](CO)N1C[C@H](C)[C@H](CN(C)Cc2ccncc2)Oc2cc(-c3ccccc3)ccc2S1(=O)=O	7.3	-40	-63	8.8	i
COc1ccc(-c2ccc3c(c2)[C@@H]2[C@@H](CCN2S(=O)(=O)c2ccccc2F)[C@H](CO)N3C)cc1	-0.6	2	10	-2.5	i
COc1ccc2c3c([nH]c2c1)[C@H](CO)N(Cc1ccncc1)CC31CCN(C(=O)CN(C)C)CC1	-1.1	6	10	-2.9	i
CC(=O)N1[C@@H]2c3ccc(/C=C/c4ccccc4)c(=O)n3C[C@H]1[C@H](CO)[C@H]2C(=O)NCC1CC1	-2.5	1	-5	2.5	i
COc1ccc(NC(=O)Nc2ccc3c(c2)CC(=O)N([C@@H](C)CO)C[C@@H](C)[C@@H](CN(C)CC2CC2)O3)cc1	9.5	3	13	-1.6	i
C[C@@H]1CN([C@H](C)CO)S(=O)(=O)c2ccc(-c3ccccc3)cc2O[C@H]1CN(C)C(=O)Nc1ccccc1F	3.8	-4	-21	1.1	i

Rewritten with values under each structure: entries from further up.
Screens in order: MLL AF4-AF9 inh, rRNA inh HTS, rRNA inh HTS OD600, rRNA inh HTS RFP, FGF22 binding
C[C@@H]1CN([C@H](C)CO)S(=O)(=O)c2ccc(-c3ccccc3)cc2O[C@H]1CN(C)C(=O)Nc1ccccc1F
→ 3.8, -4, -21, 1.1, i
O=C(c1[nH]c(C(F)(F)F)nc1-c1ccccc1)N1CCC2(CC1)C(=O)NCN2c1ccccc1
→ -7.0, -11, -1, 3.1, i

(list continues)
SMILES	MLL AF4-AF9 inh	rRNA inh HTS	rRNA inh HTS OD600	rRNA inh HTS RFP	FGF22 binding
CCC(=O)N[C@H]1CC[C@H](CCn2cc(-c3cccc(OC)c3)nn2)O[C@H]1CO	1.5	1	0	-2.7	i
O=C(c1cccnc1)N1CC[C@@H]2[C@H]1c1cc(-c3ccc(F)cc3)ccc1N[C@@H]2CO	-2.3	1	-13	6.4	i
C[C@H]1CN([C@@H](C)CO)S(=O)(=O)c2ccc(C3=CCCC3)cc2O[C@H]1CN(C)S(=O)(=O)c1ccc(F)cc1	0.4	3	9	-0.4	i
O=S(=O)(c1ccccc1)N1CCCCN2[C@H](C1)[C@H](c1ccc(C#Cc3cccnc3)cc1)[C@@H]2CO	-7.6	-4	3	6.6	i
COc1ccc(NC(=O)N(C)C[C@@H]2OCCCC[C@H](C)Oc3ccc(NC(=O)NC4CCCCC4)cc3C(=O)N([C@@H](C)CO)C[C@@H]2C)cc1	0.0	2	0	-2.2	i
COC(=O)C[C@@H]1C[C@H]2c3cc(N)ccc3O[C@H]2[C@@H](CO)O1	5.7	2	-7	-0.6	i
c1ccc2c(C(c3nnnn3-c3ccc4c(c3)OCCO4)N3CCOCC3)ccnc2c1 (centres undefined)	-0.6	4	6	-3.2	i
Cc1ccccc1S(=O)(=O)N[C@@H]1CC[C@H](CCn2cc(Cc3ccccc3)nn2)O[C@H]1CO	-0.9	-3	-15	1.0	i
COc1ccc(CN(C)C[C@@H]2Oc3ccc(NC(=O)Nc4cccc5ccccc45)cc3C(=O)N([C@@H](C)CO)C[C@H]2C)cc1	6.8	-4	-12	6.9	i
CC(C)NC(=O)N[C@@H]1CC[C@@H](CCNS(=O)(=O)c2ccc(Cl)cc2)O[C@H]1CO	-1.1	4	-3	0.8	i
CCCC(=O)Nc1ccc2c(c1)C(=O)N(C)[C@H]1CC[C@H](CC(=O)Nc3cccc(F)c3)O[C@@H]1CO2	-0.4	-1	-4	-1.5	i
C[C@H](CO)N1C[C@H](C)[C@H](CN(C)S(=O)(=O)c2ccc(Cl)cc2)OCc2cnnn2CCCC1=O	-10&-0.5	3&-2	0&11	-0.3&2.9	i
COCC(=O)N1[C@H](CO)[C@@H](c2ccccc2)[C@@H]1CNC(=O)c1ccccn1	0.0	0	11	-0.9	i
CC(C)NC(=O)Nc1ccc2c(c1)CC(=O)N([C@H](C)CO)C[C@@H](C)[C@@H](CN(C)Cc1ccc(C(=O)Nc3ccccc3N)cc1)O2	0.8	0	14	-2.5	i
COC(=O)[C@@]1(Cc2ccc(F)cc2)[C@H]2c3cc(C(=O)N4CCCC4)n(C)c3C[C@H]2CN1C(=O)c1ccccc1	-0.8	-3	4	2.5	i
C[C@H](CO)N1C[C@H](C)[C@@H](CN(C)C(=O)c2cccc(F)c2)Oc2cc(-c3cccnc3)ccc2S1(=O)=O	4.8	-2	-4	-3.3	i
C[C@@H]1CN([C@@H](C)CO)C(=O)c2cccc(NC(=O)c3cnccn3)c2O[C@@H]1CN(C)C(=O)Nc1ccccc1	-0.1	4	1	-2.4	i
C[C@H](CO)N1C[C@H](C)[C@@H](CN(C)Cc2ccc3c(c2)OCO3)Oc2ccc(NC(=O)C3CC3)cc2CC1=O	3.4	5	-4	0.2	i
C[C@@H]1CN([C@H](C)CO)C(=O)CCCn2cc(nn2)CO[C@H]1CN(C)C(=O)c1ccc(N2CCN(C)CC2)cc1	-2.8&-10&2.1	1&2	0&17	-0.5&1.6	i
C[C@H]1CN([C@@H](C)CO)S(=O)(=O)c2ccc(-c3ccc(F)cc3)cc2O[C@H]1CN(C)C	-0.8	3	3	-2.4	i
CCCc1cn(CC[C@H]2CC[C@H](NC(=O)Cc3cccnc3)[C@@H](CO)O2)nn1	-0.2	4	6	-0.7	i
CCCNC(=O)C1(C)CCCN(C(=O)c2cccc(C#N)c2)C1 (centres undefined)	-2.8	13	14	-0.8	i
CNC(=O)C[C@H]1CC[C@H]2[C@H](COc3ccc(NC(=O)Nc4ccccc4)cc3C(=O)N2C)O1	-4.4	2	-3	-3.1	i
Clc1ccccc1Nc1nc(NCc2ccccc2)nc2ccsc12	-17	9	30	2.7	i
Cc1cccc(-c2cnc(C(O)c3ccc4ccccc4c3)[nH]2)c1 (centres undefined)	-0.2	-61	-78	-22	i
C[C@@H]1CN([C@H](C)CO)S(=O)(=O)c2ccc(C#CC3CC3)cc2O[C@@H]1CN(C)C(=O)c1ccccc1	4.2	-1	-19	4.2	i
O=C(C[C@@H]1CC[C@H]2[C@@H](COC[C@H](O)CN2Cc2cccc(-c3ccncc3)c2)O1)N1CCN(c2ccccc2)CC1	8.0	3	6	4.5	i
OC(c1ccc(F)cc1)c1nc(-c2ccc(F)c(Cl)c2)cs1 (centres undefined)	-5.0	-67	-81	-24	i
O=S(=O)(c1ccccc1F)N1CC[C@@H]2[C@H](CO)Nc3ccc(-c4ccc(F)cc4)cc3[C@@H]21	-1.8	-10	-44	23	i
C[C@H](CO)N1C[C@H](C)[C@H](CN(C)S(=O)(=O)c2ccccc2)OCCCC[C@H](C)Oc2ccc(NS(=O)(=O)c3ccccc3)cc2C1=O	-6.8	1	-3	4.7	i
C[C@@H]1CN([C@H](C)CO)C(=O)c2cc(C#CC3CCCCC3)cnc2O[C@H]1CN(C)Cc1cncnc1	6.7	-2	1	-1.3	i
CC(=O)N(C)C[C@@H]1Oc2cc(C#C[C@H](C)O)ccc2S(=O)(=O)N([C@H](C)CO)C[C@@H]1C	-1.8	3	9	-2.1	i
COc1ccc(C(C)(O)c2nc(-c3cnc4ccccc4c3)cs2)cc1 (centres undefined)	-2.8	-10	-21	8.2	i
C[C@H]1CN([C@@H](C)CO)C(=O)c2cc(NC(=O)CCC(F)(F)F)ccc2O[C@H]1CN(C)Cc1ccccc1	-5.2	0	-4	-2.3	i
OC[C@H]1[C@@H](c2ccc(-c3ccc(F)cc3)cc2)[C@@H]2CN(Cc3cccnc3)CCCCN12	12	0	-16	4.5	i
Cc1noc(C)c1S(=O)(=O)N(C)C[C@H]1OCCCC[C@H](C)Oc2ccc(N(C)C)cc2C(=O)N([C@H](C)CO)C[C@@H]1C	6.8	-2	-3	1.9	i
COc1ccc(CN(C)C[C@@H]2Oc3ccc(NC(=O)Nc4ccc(OC)cc4)cc3C(=O)N([C@H](C)CO)C[C@H]2C)cc1	4.8	2	4	-3.3	i
O=C(C1CCC1)N1C[C@@H]2[C@H](c3ccccc31)[C@@H](CO)N2S(=O)(=O)c1ccccc1	-1.2	-7	-4	-1.6	i
Cc1ccc(-c2ccc(CN3C(C(C)C)C(=O)N(Cc4cn(CCC5OCCCO5)nn4)CCS3(=O)=O)cc2)cc1 (centres undefined)	0.4	4	6	-0.9	i
C[C@@H]1CN([C@H](C)CO)C(=O)c2c(c3ccccc3n2C)-c2ccccc2CO[C@@H]1CN(C)C(=O)c1cc(Cl)cc(Cl)c1	2.9	0	-1	-1.6	i
Cc1ccc2c(c1)CO[C@@]21O[C@H](CCO)C[C@H](O)[C@H]1O	0.2	2	6	0.5	i
C[C@H]1CN([C@@H](C)CO)C(=O)Cc2cc(NS(=O)(=O)c3ccccc3)ccc2O[C@H]1CN(C)CC1CC1	-1.7	3	6	1.4	i
CC(=O)N1c2ccc(S(=O)(=O)NCCC(=O)Nc3ccc(Cl)cc3)cc2CC1C (centres undefined)	-1.2	-2	-9	-0.6	i
C[C@@H]1CN([C@H](C)CO)C(=O)Cc2cc(NS(=O)(=O)c3cn(C)cn3)ccc2O[C@H]1CN(C)Cc1ccc(Cl)c(Cl)c1	-16	3	-3	1.3	i

Arranged by count of non-hydrogen atoms (ascending): five of the compounds above
SMILES	MLL AF4-AF9 inh	rRNA inh HTS	rRNA inh HTS OD600	rRNA inh HTS RFP	FGF22 binding
Cc1ccc2c(c1)CO[C@@]21O[C@H](CCO)C[C@H](O)[C@H]1O	0.2	2	6	0.5	i
O=C(C1CCC1)N1C[C@@H]2[C@H](c3ccccc31)[C@@H](CO)N2S(=O)(=O)c1ccccc1	-1.2	-7	-4	-1.6	i
C[C@H]1CN([C@@H](C)CO)C(=O)Cc2cc(NS(=O)(=O)c3ccccc3)ccc2O[C@H]1CN(C)CC1CC1	-1.7	3	6	1.4	i
Cc1ccc(-c2ccc(CN3C(C(C)C)C(=O)N(Cc4cn(CCC5OCCCO5)nn4)CCS3(=O)=O)cc2)cc1 (centres undefined)	0.4	4	6	-0.9	i
COc1ccc(CN(C)C[C@@H]2Oc3ccc(NC(=O)Nc4ccc(OC)cc4)cc3C(=O)N([C@H](C)CO)C[C@H]2C)cc1	4.8	2	4	-3.3	i
